Source: PubChem BioAssay (National Center for Advancing Translational Sciences (NCATS))
TRPML1 blocker = qHTS for Inhibitors of the Human Mucolipin Transient Receptor Potential 1 (TRPML1). 390,000 tested, 0.02% active. activity change, negative = inhibition, % (test concentration not listed). TRPML1-inducible cells, Ca2+ dye fluorescence, FDSS; stronger effect = lower value; inhibition of EC80 agonist-evoked calcium signal. Mucolipin-1 (Homo sapiens), Q9GZU1; in the data active means activity change below about -50%; inconclusive means about -30% to -50%; inactive means above about -30%;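 note: stimulus is agonist 54-4 at its EC80 concentration; % is set by controls: 0 for no effect and ±100 for the full control effect; compound concentration not given in the record; the text of the record puts the active cut at -80%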
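TRPML1-DL cells, Tet-induced overnight (~16 h, 37 °C) at 1,500 cells/well, were loaded with Ca8 no-wash dye plus quencher for 45-90 min at room temperature. Compounds were pinned during FDSS kinetic reading; agonist 54-4 at EC80 (4 uM final) then added.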
TRPML1 ag = qHTS for Agonists of the Human Mucolipin Transient Receptor Potential 1 (TRPML1); TRPML1-expressing cells, Ca2+ dye fluorescence, FDSS; host cell line not named in the record; reference of the full effect not given here; 410,000 tested, 0.12% active; Mucolipin-1 (Homo sapiens), Q9GZU1; activation, % (no concentration beside the values); in the data active = activation above about 50%; inconclusive = about 30% to 50%; inactive = below about 30%; note: 0% is about no effect; the text of the record puts the active cut at 80%
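Cells: TRPML1-DL, 1X Tet inducer, ~16 h at 37 degrees C/5% CO2. Dye: ABD Ca8 no-wash + quencher, 45-90 min RT. Read: 10 s baseline, compound add, 110 s agonist phase; 54-4 EC80 (4uM final), 110 s antagonist phase.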
Six1-Eya2 blk = qHTS Assay for Inhibitors of the Six1/Eya2 Interaction | Homeobox protein SIX1 (Homo sapiens) + Protein phosphatase EYA2 (Homo sapiens), … | 360,000 tested, 0.56% active | activity change, % (no concentration beside the values) | AID 651725, 2012 | AlphaScreen GST-Six1/His-Eya2 binding, biochemical; stronger effect = lower value; control for the full effect not named in the record; in the data active = activity change below about -65%; inconclusive = about -30% to -65%; inactive = above about -30%; note: % is set by controls: 0 for no effect and ±100 for the full control effect; compound concentration not given in the record
Target sequence (O00167 whole entry, looked up): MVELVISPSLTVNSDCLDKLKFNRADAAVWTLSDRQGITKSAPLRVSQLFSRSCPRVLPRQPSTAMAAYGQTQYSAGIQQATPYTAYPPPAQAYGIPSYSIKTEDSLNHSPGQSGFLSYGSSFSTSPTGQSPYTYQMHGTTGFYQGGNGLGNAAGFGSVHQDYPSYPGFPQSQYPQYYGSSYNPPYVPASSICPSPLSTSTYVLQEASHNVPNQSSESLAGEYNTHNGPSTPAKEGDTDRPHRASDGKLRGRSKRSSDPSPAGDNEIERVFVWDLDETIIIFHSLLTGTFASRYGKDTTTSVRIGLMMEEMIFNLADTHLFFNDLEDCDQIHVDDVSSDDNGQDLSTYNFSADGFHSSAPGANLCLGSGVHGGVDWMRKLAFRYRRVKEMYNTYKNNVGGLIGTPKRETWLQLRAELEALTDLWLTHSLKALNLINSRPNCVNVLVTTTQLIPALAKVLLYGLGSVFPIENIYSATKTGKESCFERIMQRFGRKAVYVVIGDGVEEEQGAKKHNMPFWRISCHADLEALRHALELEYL
Target sequence (Q15475 whole entry, looked up): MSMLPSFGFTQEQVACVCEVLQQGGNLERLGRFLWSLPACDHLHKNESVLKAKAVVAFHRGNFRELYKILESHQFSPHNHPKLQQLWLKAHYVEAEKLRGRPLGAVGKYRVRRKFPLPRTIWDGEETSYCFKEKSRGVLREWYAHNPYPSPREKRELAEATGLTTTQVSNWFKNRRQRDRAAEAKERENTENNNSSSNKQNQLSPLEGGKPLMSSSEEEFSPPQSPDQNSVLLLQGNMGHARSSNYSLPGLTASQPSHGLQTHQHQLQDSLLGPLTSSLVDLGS
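AlphaScreen with GST-Six1 and His-Eya2 (5X mix: 250 nM and 500 nM), glutathione donor and nickel acceptor beads; buffer 50 mM Tris pH 8.0, 300 mM NaCl, 1 mM TCEP; 1 h at 37 C in the dark.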
CtBP-E1A blk = qHTS Assay for Inhibitors of the CtBP/E1A Interaction; AlphaScreen GST-E1A/His-CtBP binding, 1536-well; stronger effect = lower value; control for the full effect not named in the record; activity change, % (no concentration beside the values); 340,000 tested, 0.49% active; AID 651724, 2012; in the data active means activity change below about -65%; inconclusive means about -30% to -65%; inactive means above about -30%; note: % is set by controls: 0 for no effect and ±100 for the full control effect; compound concentration not given in the record
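GST-E1A and His-tagged CtBP (125 nM each as 5X stock) were preincubated with pin-transferred compound for 2 h at 37 °C in the dark, then glutathione donor and nickel acceptor beads were added for 1 h before AlphaScreen reading.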
PINK1 expr mod = A Quantitative High throughput Screen to Identify Chemical Modulators of PINK1 Expression. PINK1 immunofluorescence, high-content cytometry, 24 h. Potency, µM (titrated, usually from 76.6 µM), without a hit: at the top dose activation (PINK1 increase), actives largely listed as activators. 410,000 tested, 0.2% active; active = well fitted activation curve with a large enough effect; inconclusive = small, poorly fitted or top-dose-only effect; inactive = flat fitted curve, though single readings scatter; cell line not stated here;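 note: potency is the fitted concentration of half-maximal effect; % of control where 0% means no effect; nearly all actives have a fitted effect of over 65% in size; a mitochondrial uncoupler was the plate control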
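Cells are seeded, rested 12 hours, then given compound at five concentrations or DMSO for 24 hours. After fixation, blocking and antibody staining, PINK1 amount and mitochondrial localization are scored; CCCP serves as control.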
D2 ag = Beta-Arrestin HTS for Positive Allosteric Modulators of the Human D2 Dopamine Receptor: Agonists; D(2) dopamine receptor (Homo sapiens), P14416; DiscoveRx PathHunter D2 beta-arrestin, luminescence, 90 min; 100% = 57 uM dopamine signal; activation, % (concentration not given with the values); 360,000 tested, 0.084% active; AID 624465, 2012; in the data active = activation above about 40%; inconclusive = about 15% to 40%; inactive = below about 15%; note: compound concentration not given in the record; the text of the record calls up to 30% inactive
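DiscoveRx PathHunter D2 beta-arrestin cells (2,100/well) attached overnight, then compound-stimulated 90 min at 37 C in HBSS/10 mM HEPES/0.1% Tween-20 buffer; beta-galactosidase complementation read by luminescence after 1 h at ambient temperature. Dopamine 57 uM final (EC100) as control.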
Active calls of the source: *; ? = inconclusive; · = not tested or not shown; [ ] = another dose, or the depositor's remark.

The line under a structure holds: TRPML1 blocker	TRPML1 ag	Six1-Eya2 blk	CtBP-E1A blk	PINK1 expr mod	D2 ag
CCC(=O)Nc1ccc(S(=O)(=O)NCc2ccco2)cc1
→ 6	-1.1	2	0	-1.7%	1.3
Oc1ccc(Cl)cc1C1C=C(c2ccc3c(c2)OCO3)NC(c2cc(Br)ccc2F)N1 (configuration not stated)
→ -12	1.7	·	·	-0.1%	·
CSc1ncccc1C(=O)Nc1cccc(S(=O)(=O)N2CCCCCC2)c1
→ 14	-0.3	-6	·	1.8%	8.2
CC(C)(C)S(=O)c1cccs1 (configuration not stated)
→ 13	0.7	4	13	·	-1.9
CC(Sc1nnc(N)s1)C(=O)Nc1ccc2c(c1)OCCO2 (configuration not stated)
→ -5	0.6	-8	-19	-0.4%	-1.4
O=C(Nc1ccc(F)cc1F)C1CCCN(c2ncnc3c2nc2n3CCCCC2)C1 (configuration not stated)
→ 6	1.6	-14	-22	-0.6%	0.5
O=C(c1ccc2c(c1)N(Cc1ccccc1F)C(=O)c1ccccc1S2=O)N1CCC(Cc2ccccc2)CC1 (configuration not stated)
→ 7	0.5	·	·	2.0%	·
CCCCn1c(N)c(N(Cc2ccccc2OC)C(=O)COc2ccc(F)cc2Cl)c(=O)[nH]c1=O
→ -4	-0.4	0	-11	-1.3%	7.3
O=C(CN1C(=O)CCC1=O)Nc1nc(-c2ccc(Oc3ccccc3)cc2)cs1
→ 3	0.0	-4	-11	-1.7%	-0.5
CC(C)(C)NC(=O)C(c1ccco1)N(C(=O)Cn1nnc(-c2ccc(F)cc2)n1)c1ccccc1F (configuration not stated)
→ 0	1.3	-6	2	3.1%[38.3 µM]	-2.2
CCN(CC)CC(O)CCCCCCCCC(=O)OC (configuration not stated)
→ 7	-0.2	3	-3	0.9%	-6.0
CCOc1ccc(CNC(=O)c2c(C)nn(-c3ccc(F)cc3)c2-n2cccc2)cc1
→ 20	6.1	·	·	5.5%	·
CCCSc1ccc2nc(-c3ccccc3)cn2c1
→ 31	1.6	8	14	3.0%	1.4
CCCCCCC(=O)N(O)C1CC(=O)N(c2ccc(F)cc2)C1=O (configuration not stated)
→ 3	-0.7	0	3	3.7%	-1.4
COc1ccc(N2CCN(C(=O)C3CCN(S(=O)(=O)c4ccc(F)cc4)CC3)CC2)cc1
→ -16	-0.4	2	-12	-0.4%	3.2
CCCCc1nnc(NC(=O)CCS(=O)(=O)Cc2ccccc2)s1
→ -6	-0.1	-3	12	-1.5%	-3.7
O=C(CNC(=O)c1ccc2c(c1)OCO2)N/N=C(Br)/C=C/c1ccccc1
→ 2	-0.4	-13	0	-2.3%	-3.8
CC(=O)Nc1ccc(NC(=O)CSc2ccc(-c3ccco3)nn2)cc1
→ -8	-0.7	-17	2	17%	-1.9
Cc1cccc(OCC(=O)Nc2ccc(-c3nc4cc(C)ccc4o3)c(O)c2)c1
→ -3	0.2	·	·	3.1%	·
CC(=O)Nc1cccc(-c2csc(N)n2)c1
→ -2	0.1	2	·	-0.2%	-6.0
CCc1ccc(OCC(=O)N(Cc2cccs2)C2CCS(=O)(=O)C2)cc1 (configuration not stated)
→ -2	1.5	23	1	0.4%	0.5
CC1CC(C)(C)CC2(C1)NC(=O)N(CC(=O)N(Cc1ccccc1)c1ccccc1)C2=O (configuration not stated)
→ 25	3.2	-4	2	1.5%	0.0
CC(C)NC(=O)C1CCN(C2CCN(C(=O)c3ccc4cccc(F)c4n3)CC2)CC1
→ 1	0.9	4	4	-1.0%	-1.7
COc1cc(C(=O)CSc2nncn2C)cc(OC)c1OC
→ -1	-0.4	-3	-3	-1.3%	-0.3
Cc1cccc(C(=O)NNC(=O)c2ccco2)c1O
→ -19	0.0	1	1	0.1%	2.8
CCN(CC)S(=O)(=O)c1cccc(C(=O)Nc2sc3c(c2C#N)CCC(C)C3)c1 (configuration not stated)
→ 14	-0.9	·	·	2.1%	·
NC(=O)c1ccc(NC(=O)COC(=O)CCCOc2ccccc2)cc1
→ -13	-0.4	0	3	-2.7%	-3.1
Cc1ccc2oc(Nc3nc(C)c(C)c(C)n3)nc2c1
→ 18	0.1	0	·	1.9%	-0.8
CC1CCN(CCCNC(=O)c2ccc3c(Cl)c4c(nc3c2)CCCC4)CC1
→ -7	-0.5	8	3	-1.7%	-2.8
Cc1ccccc1NS(=O)(=O)c1cc(C(=O)NCCSC2CCCCC2)ccc1C
→ 0	1.2	-5	12	·	-1.5
COC(=O)c1c(SC)nc2ccccc2c1OCc1ccc(Cl)cc1
→ 20	0.5	·	·	1.5%	·
Cc1ccc2nc(SCC(=O)Nc3cccc(F)c3)nc(=O)n2c1
→ -12	-0.1	-9	17	-2.4%	1.6
O=C(N/N=C/c1c(F)cccc1Cl)C(=O)N1CCCCCC1
→ 5	-0.4	-1	-12	3.1%	-2.3
CCN(CC)S(=O)(=O)c1cc(-c2ccc(=O)n(C(C)C(=O)Nc3cccc(C#N)c3)n2)ccc1C (configuration not stated)
→ 19	1.9	·	·	1.2%	·
O=C(Cn1cc(C(=O)c2ccco2)c2ccccc21)NC1CCCC1
→ -7	-1.1	-1	-2	2.0%	-1.1
Cc1cccc(S(=O)(=O)NC2CCCCCCC2)c1
→ -7	-0.2	6	10	1.4%	0.7
COc1ccc(NC(C)=O)cc1S(=O)(=O)Nc1ccccc1C(=O)NCCc1ccccc1
→ 11	-0.8	-11	3	-0.4%	-0.7
S=c1[nH]ccn1Cc1ccccc1
→ 5	-1.2	-8	3	0.0%	-0.3
Cc1cc(C)c(S(=O)(=O)Nc2ccncc2)cc1C
→ 4	-0.4	-2	3	0.6%	-1.4
O=C(Nc1ccc(Cc2ccc(NC(=O)C3CC3)cc2)cc1)C1CC1
→ -13	-0.2	1	·	9.9%	5.3
CS(=O)(=O)N(Cc1cccc(CN(C(C(=O)O)c2ccccc2)S(C)(=O)=O)c1)C(C(=O)O)c1ccccc1 (configuration not stated)
→ -6	-0.4	1	3	1.0%	-2.6
Cn1c(CCc2ccccc2)n[nH]c1=S
→ -2	0.8	18	-2	-0.6%	-6.8
NCc1csc(Nc2ncccn2)n1
→ ·	-0.6	-73*	-81*	0.3%	-4.3
COC(=O)/C(C#N)=C/c1c(N2CCN(c3ccccc3)CC2)nc2ccccn2c1=O
→ 1	1.9	-19	-17	0.9%	0.8
COc1ccccc1-c1noc(-c2ccccc2C(=O)Nc2ccccc2)n1
→ 50	1.0	9	-3	?	-1.3
CN1CCN(C(=S)C(=O)Nc2ccccc2)CC1
→ -4	-0.1	12	3	1.0%	-2.4
Clc1cc(Cl)c(Cl)c(Cl)c1Cl
→ -14	-0.7	25	0	0.1%	-3.5
CN1C(=O)c2ccc(C(=O)NC3CCCCC3)cc2C1=O
→ 18	-0.8	1	-1	-0.3%	-1.8
CCN1CCN(C(=O)CSCc2nc(-c3ccc(OC)c(OC)c3)oc2C)CC1
→ 21	1.1	2	2	-3.3%	-3.7
CCCC(=O)N1CCN(c2ccc(NC(=O)c3ccc(N4CCCC4)c([N+](=O)[O-])c3)cc2Cl)CC1
→ 6	0.8	0	-2	1.0%	-1.6
Cc1sc(NC(=O)CSc2nnc(-c3ccccc3)o2)c(C#N)c1C
→ 7	1.4	3	-5	13%	-2.3
Cc1cc(C)n(C(=O)CNC(=O)C2COc3ccccc3O2)n1 (configuration not stated)
→ 4	-0.3	0	5	-0.3%	-2.9
CCOC(=O)Cn1c(=O)n(CC2CCCO2)c2nc(-c3ccccc3OC)nc(C(N)=O)c21 (configuration not stated)
→ -8	-0.4	·	·	-0.1%	·
CCOC(=O)c1ccc(NC(=O)Cn2c3ncccc3c(=O)n2-c2ccc(C)c(C)c2)cc1
→ -8	0.8	·	·	0.7%	·
CCOc1ccc(-c2nnc(NC(=O)c3ccc(OCC(C)C)c(OC)c3)o2)cc1
→ 21	-0.9	-4	-1	0.8%	-1.2
CC(=O)c1ccc(N2CCN(C(=O)CCS(=O)(=O)c3ccc4c(c3)oc(=O)n4C)CC2)cc1
→ -9	-0.8	·	·	7.1%	·
CCOC(=O)N1CCN(S(=O)(=O)c2ccc(C(=O)Nc3sc4c(c3C#N)CC(C)(C)NC4(C)C)cc2)CC1
→ 25	-0.3	-13	0	0.7%	-3.4
C#CCOc1nc(C)cc(C)c1S(=O)(=O)c1ccccc1C
→ -12	1.8	8	13	0.2%	-1.8
COc1ccc(C(C)=O)cc1COC(=O)c1ccc2c(c1)OCO2
→ 5	0.4	-2	1	0.9%	-2.6
CCOC(=O)c1ccc(NC(=O)N2CCN(Cc3cccc(F)c3)CC2)cc1
→ -5	2.5	18	32	-2.1%[38.3 µM]	1.8

New compounds follow
The line under a structure holds: TRPML1 blocker	TRPML1 ag	Six1-Eya2 blk	CtBP-E1A blk	PINK1 expr mod	D2 ag
Cc1cc(C)c2oc(-c3cccc(NC(=O)c4ccc(F)cc4)c3)nc2c1
→ -10	0.0	0	8	13%	-2.8
COc1ccc(-c2cccc(C(=O)Nc3ccccc3C)c2)cc1
→ -5	-0.3	5	-1	0.7%	-2.2
N#CC1=C(N)N(c2ccc(Oc3ccccc3)cc2)C(=O)C1
→ 5	1.3	-3	0	1.9%	-4.0
CCOC(=O)c1cc(OC(=O)c2ccccc2F)n(-c2ccccc2)n1
→ 1	2.1	·	·	0.0%	·
O=c1cc(-c2ccccc2)n2c(SCc3ccccc3)nnc2[nH]1
→ -5	1.8	·	·	5.9%	·
COc1cc(C(=O)Nc2nnc(SC)s2)c([N+](=O)[O-])cc1OC
→ -11	0.6	3	·	2.0%	-6.3
Cc1cccc(C(=O)N/N=C/c2coc3ccccc3c2=O)c1
→ -13	0.6	2	0	4.1%	-3.8
Cc1ccc(NC(=O)C(C)OC(=O)c2ccc(NC(=O)CC#N)cc2)cc1S(=O)(=O)N1CCOCC1 (configuration not stated)
→ 29	0.5	-13	-5	3.5%	1.4

Three compounds from above, reduced to PINK1 expr mod, D2 ag and TRPML1 ag:
molecule | PINK1 expr mod | D2 ag | TRPML1 ag
O=C(Nc1ccc(Cc2ccc(NC(=O)C3CC3)cc2)cc1)C1CC1 | 9.9% | 5.3 | -0.2
CS(=O)(=O)N(Cc1cccc(CN(C(C(=O)O)c2ccccc2)S(C)(=O)=O)c1)C(C(=O)O)c1ccccc1 (configuration not stated) | 1.0% | -2.6 | -0.4
Cn1c(CCc2ccccc2)n[nH]c1=S | -0.6% | -6.8 | 0.8
